# GLA inh pH 4.5: inhibitors of human alpha-galactosidase A at pH 4.5. 230,000 tested, under 10 active. activity change, negative = inhibition, % at 105 µM. P06280. AID 1467. purified enzyme, 4-MU-alpha-Gal fluorescence, pH 4.5; inconclusive = small, poorly fitted or top-dose-only inhibition, or a rising curve; inactive = flat fitted curve, though single readings scatter; no compound was filed as active;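 note: 0% = full activity with enzyme and -100% = basal without enzyme; dose as in the result columns while the protocol names 77 µM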
# miR-21 reporter: miR-21 reporter, rising signal; HeLa miR-21 FLuc reporter, luciferase, 48 h; Potency, µM (doses to about 38.3 µM), inactives show top-dose reporter change, positive = more light; 340,000 tested, under 10 active; active = well fitted rising curve with a large enough effect; inconclusive = small, poorly fitted or top-dose-only effect; inactive = no such curve, though single readings can be large or run the other way;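 note: % of control where 0% means no effect; miR-21 action dims this reporter so a rising signal means less miR-21 action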
#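 Luminescence from a firefly luciferase reporter carrying a miR-21 binding site downstream, stably expressed under a CMV promoter in HeLa cells that make miR-21 endogenously, reports miRNA modulation after 48 h compound exposure up to approximately 40uM final.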
# Rango complex inh: inhibitors of Rango-importin beta complex formation | Q14974 | Rango CFP/YFP FRET sensor + importin beta, 45 min | Potency, µM (doses to about 92.2 µM), without a hit: top-dose inhibition of complex formation | actives 0.031% (n = 340,000) | AID 540263; active = rising FRET ratio curve, often small or poorly fitted; inconclusive = mostly compound fluorescence or quenching in the first reads; inactive = flat curves in all reads;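 note: potency is the fitted concentration of half-maximal effect; 0% = DMSO wells and 100% = buffer wells lacking importin beta; nearly all actives have a fitted effect of over 15% in size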
# Target sequence (Q14974 whole entry, looked up): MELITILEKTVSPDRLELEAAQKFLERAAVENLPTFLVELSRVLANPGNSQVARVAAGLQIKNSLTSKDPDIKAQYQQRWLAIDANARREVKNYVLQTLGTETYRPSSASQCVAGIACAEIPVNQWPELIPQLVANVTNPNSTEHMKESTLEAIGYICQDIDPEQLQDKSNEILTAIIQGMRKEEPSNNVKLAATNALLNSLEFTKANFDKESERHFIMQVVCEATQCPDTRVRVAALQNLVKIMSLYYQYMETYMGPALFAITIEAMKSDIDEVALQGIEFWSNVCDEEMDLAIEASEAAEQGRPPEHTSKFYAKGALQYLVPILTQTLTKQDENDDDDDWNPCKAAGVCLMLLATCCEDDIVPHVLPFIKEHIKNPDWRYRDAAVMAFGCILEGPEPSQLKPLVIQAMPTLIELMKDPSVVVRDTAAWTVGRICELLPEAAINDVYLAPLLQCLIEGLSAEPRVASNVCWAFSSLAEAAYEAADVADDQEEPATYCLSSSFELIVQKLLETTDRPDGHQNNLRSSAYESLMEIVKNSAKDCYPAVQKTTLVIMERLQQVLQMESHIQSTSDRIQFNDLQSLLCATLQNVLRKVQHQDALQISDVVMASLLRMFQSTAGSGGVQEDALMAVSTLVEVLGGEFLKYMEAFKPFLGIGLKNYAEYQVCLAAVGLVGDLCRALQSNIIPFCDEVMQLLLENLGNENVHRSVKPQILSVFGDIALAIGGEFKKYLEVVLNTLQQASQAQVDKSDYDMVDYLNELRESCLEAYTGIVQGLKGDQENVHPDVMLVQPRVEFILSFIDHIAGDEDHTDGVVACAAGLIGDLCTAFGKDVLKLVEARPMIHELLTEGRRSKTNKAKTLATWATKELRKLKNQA
#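 FRET biosensor (snurportin 1 IBB flanked by EYFP and cerulean), 50 nM, with compound 5 min, then 0.125 microM importin beta in PBS, 1 mM DTT, 0.02% Tween-20, 0.1% BSA. CFP/YFP ratio read after 45 min at room temperature; pre-read flags interference.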
# Rango dissoc inh: prevents RanGTP from dissociating the Rango-importin beta complex. Biochemical FRET Rango-importin beta, RanGTP-induced dissociation. Potency, µM (series often up to 46.1 µM), for the others: top-dose activity change, negative = inhibition. actives 0.071% (n = 340,000); active means falling FRET ratio curve, often poorly fitted, with flat reads before Ran was added; inconclusive means other falling curves, or compound fluorescence or quenching; inactive means flat or rising ratio curve;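 note: potency is the fitted concentration of half-maximal effect; % of control where 0% means no effect; nearly all actives have a fitted effect of over 45% in size; -100% = wells without RanGTP and RCC1; the record marks most hits as doubtful in a second field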
#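 Compounds sat 5 min at room temperature with 0.1 uM Rango biosensor plus 0.25 uM importin beta, then FRET pre-read. RanGTP-RCC1 (0.6 uM Ran, 2mM GTP, 0.2 uM RCC1) added for 45 min, and the CFP/YFP post-read measured blocked complex dissociation.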
# * = called active by the depositor; ? = inconclusive; · = no result given; & = joins results of further samples. An excerpt, so the mix of outcomes need not match the whole.
SMILES | GLA inh pH 4.5 | miR-21 reporter | Rango complex inh | Rango dissoc inh
Cc1ccc(-c2nn(CC(=O)NCc3ccccn3)c(=O)c3ccccc23)cc1S(=O)(=O)N(C)C | -0.3 | -1.7% | 0.5% | 20.3%
O=C(c1cccc(Br)c1)N1CCN(C(=O)N2CCOCC2)CC1 | 2.3 | -3.5% | 3.2% | -4.5%
CSCCC(NS(=O)(=O)c1ccccc1)C(=O)Nc1nccs1 (stereo unspecified) | · | · | -2.6% | -8.7%
COCCSc1nnc(NC(=O)CS(=O)(=O)c2ccccc2)s1 | · | -0.4% | ? | 9.2%
Cc1nc(NCCN2CCOCC2)c2nnn(Cc3ccccc3Cl)c2n1 | -7.0 | -3.5% | -2.8% | -6.7%
COc1ccc(CCNc2cc(C)nc3c(-c4ccccc4)c(C)nn23)cc1OC | -10.0 | 14.8% | 3.3% | 1.0%
CCn1c(-c2cc(-c3cc(OC)ccc3OC)nc3ccccc23)n[nH]c1=S | -13.6 | 1.5% | -0.2% | -18.4%
CCC(=O)N1N=C(c2ccc(NS(=O)(=O)c3ccc(C)cc3)cc2)CC1c1ccco1 (stereo unspecified) | · | · | -1.3% | -2.0%
CCSc1nnc(NC(=O)c2nc(-c3ccccc3)n(-c3ccccc3)n2)s1 | 0.7 | -3.8% | 0.3% | 0.1%
CCN(CC)C(=O)C1CCC(C)(C(=O)O)C1(C)C (stereo unspecified) | -5.8 | 1.8% | -1.5% | 2.2%
OCCC1CN(Cc2cnn(-c3ccccc3Cl)c2)CCN1Cc1ccsc1 (stereo unspecified) | 7.9 | -4.7% | 0.5% | -3.0%
COc1ccc(S(=O)(=O)NCC2CCC(C(=O)NCc3ccc(F)cc3)CC2)cc1 (stereo unspecified) | · | -11.9% | 0.2% | -8.5%
O=C(N1CCN(c2ccc(F)cc2)CC1)C12CC3CC(CC(C3)C1)C2 | -3.7 | 1.4% | -0.9% | -2.2%
O=C(Nc1nc(-c2nc3ccccc3s2)cs1)C1CC1 | -4.9 | -26.6% | 0.2% | 23.4%
CC[C@H](C)[C@@H](CN[C@H](C)CNC)NCCC(c1ccccc1)c1ccccc1 | · | ? | 0.0% | -14.5%
CCNC(=S)N/N=C(\C)c1ccco1 | 3.8 | 1.0% | -3.0% | -0.2%
O=[N+]([O-])c1ccccc1-n1cnc2ccccc21 | 6.6 | -2.4% | 0.0% | 6.8%
COc1ccc(Nc2nc3ccccc3nc2C)cc1 | -0.3 | -18.4% | -1.5% | 1.0%
COc1ccc(N2CCN(S(=O)(=O)c3cc4c(cc3C)N(C(C)=O)CCO4)CC2)cc1 | · | 4.5% | -10.2% | 1.0%
CS(=O)c1ccccc1-c1nc(-c2ccc([N+](=O)[O-])cc2)no1 (stereo unspecified) | · | · | -1.8% | -10.2%
CCNC(=S)N/N=C/c1c(C)nn(-c2cccc(Cl)c2)c1Cl | 4.3 | -2.9% | 10.1% | 13.1%
Cc1n(CC(=O)c2ccc(F)cc2)c2ccccc2[n+]1C | 3.1 | 0.9% | -3.4% | 5.4%
Cc1cc(Cl)c(OCCCn2ccnc2)c(Br)c1 | 1.4 | -13.0% | 3.9% | 0.0%
CCCNC1=CC(=O)CC(C)(C)C1 | 1.3 | -5.2% | -3.0% | ?
O=C1C=CC(=Nc2ccc(F)cc2)O1 | · | · | -0.6% | -2.2%
CCCCCCn1c(CN2CCCC(C)C2)nc2c1c(=O)n(C)c(=O)n2C (stereo unspecified) | -5.3 | -0.9% | 2.3% | 6.9%
CC1CN(CCS(=O)(=O)c2cc(Cl)ccc2Cl)CC(C)O1 (stereo unspecified) | · | ? | 0.0% | 7.4%
NC(=O)Oc1cccc(OC(N)=O)c1 | -6.3 | -2.2% | ? | ?
Cc1ccccc1C(=O)Nc1ccc(S(=O)(=O)N2CC(C)OC(C)C2)cc1 (stereo unspecified) | · | 11.9% | -3.9% | 17.7%
CN(C)C(=O)c1cc(C(=O)c2c(F)cccc2F)c[nH]1 | · | -9.4% | 0.0% | -5.7%
CC(=O)Nc1ccc(S(=O)(=O)N2CCNC(=O)CC2)cc1 | -0.2 | -2.5% | -1.1% | -15.0%
CCCc1cc(=O)[nH]c(SCC(=O)c2cc(C)n(C)c2C)n1 | 10.3 | -10.3% | -0.6% | -5.0%
CCOC(=O)/C=C/c1ccc(C(F)(F)F)cc1S(=O)(=O)NC(C)(C)C | · | · | -4.1% | -6.5%
CN(CC(=O)NC1CC1)S(=O)(=O)c1ccc(F)cc1 | 3.0 | -1.1% | -2.1% | -4.4%
CCOc1ccccc1N1CCN(C(=O)CCCc2nc3ccccc3s2)CC1 | -3.6 | -3.5% | 3.0% | -18.0%
CN(Cc1ccccc1)C(=O)c1ccc([N+](=O)[O-])o1 | -0.8 | 25.6% | 1.2% | 6.6%
O=C(C1CCCCC1C(=O)N1CCCCC1)N1CCCCC1 (stereo unspecified) | · | · | 4.5% | 2.1%
CCOc1cc(/C=N\Nc2ncc(F)c(N3CCOCC3)n2)ccc1Oc1nc(Cl)ncc1F | -3.9 | 23.7% | -0.7% | 0.5%
COc1ccccc1CNC(=O)CCNC(=O)Cn1cnc2ccccc2c1=O | 0.3 | -0.3% | 2.7% | -5.9%
COc1ccccc1CCNC(=O)CCn1nc(C)c2c(C)n(-c3ccccc3)nc2c1=O | · | -2.8% | 1.4% | -2.3%

# Among those listed so far, these contain a nitro group on carbon.
SMILES | GLA inh pH 4.5 | miR-21 reporter | Rango complex inh | Rango dissoc inh
O=[N+]([O-])c1ccccc1-n1cnc2ccccc21 | 6.6 | -2.4% | 0.0% | 6.8%
CS(=O)c1ccccc1-c1nc(-c2ccc([N+](=O)[O-])cc2)no1 (stereo unspecified) | · | · | -1.8% | -10.2%
CN(Cc1ccccc1)C(=O)c1ccc([N+](=O)[O-])o1 | -0.8 | 25.6% | 1.2% | 6.6%

# Continuation:
SMILES | GLA inh pH 4.5 | miR-21 reporter | Rango complex inh | Rango dissoc inh
O=C(NC(=S)NCc1ccccc1)c1cccc([N+](=O)[O-])c1 | · | 2.7% | -0.5% | 23.7%
Cc1ccc(NC(=O)c2ccccc2OCc2c(C)noc2C)cc1S(=O)(=O)N(C)C | · | · | -5.7% | -2.9%
C=CCn1c(SCC(=O)NC2CCS(=O)(=O)C2)nc2sc(CC)cc2c1=O (stereo unspecified) | -4.0 | 0.3% | 5.0% | -4.8%
COc1cc(/C=N/n2c(C)nnc2C)cc(OC)c1OC | -7.8 | -1.3% | -0.1% | 2.7%
O=S(=O)(Oc1ccccc1)c1cccnc1 | · | · | 5.0% | 0.4%
COc1cccc(OC)c1C(=O)Nc1cccc(NC(=O)c2cccs2)c1 | · | -0.8% | -4.3% | -17.5%
CS(=O)(=O)Nc1ccccc1C(=O)Nc1cccc(Cl)c1 | -9.7 | 9.7% | 9.9% | 33.0%
NC(=O)c1ccccc1NC(=O)CC12CC3CC(CC(C3)C1)C2 | · | 6.2% | 3.9% | 3.2%
O=C1c2cnc3nc(SCc4ccc(Cl)cc4)nn3c2CC2c3ccccc3CCN12 (stereo unspecified) | 10.4 | -7.4% | -6.6% | -4.5%
CN(C)CCCN(C(=O)c1ccc(Cl)s1)c1nc2cc3c(cc2s1)OCO3 | · | -5.8% | 0.0% | 3.5%
COc1ccc(C2C(C)C3(O)CC(C#N)(C(=O)N3)C2(C#N)C#N)cc1 (stereo unspecified) | 1.2 | 4.1% | 3.1% | -7.7%
CC(=O)N(c1ccc(Cl)cc1)c1c[nH]c2ccccc12 | 5.2 | 1.6% | 3.2% | -11.6%
Cc1c(Cl)cnc(NC(=O)CSc2nnc(C)n2Cc2ccccc2)c1Cl | -4.0 | -1.6% | -3.7% | -2.3%
COc1ccc(C(c2c(C)n(C)n(-c3ccccc3)c2=O)c2c(C)n(C)n(-c3ccccc3)c2=O)cc1O | -0.3 | 21.2%&26.0% | · | ·
Cc1cc(C)c2c(n1)nn1c(N3CCN(Cc4ccccc4)CC3)cc(C)nc21 | 20.6 | -1.0% | -9.8% | -12.6%
Cc1ccccc1C(=O)c1cccn1CC(=O)NCC(C)c1ccccc1 (stereo unspecified) | · | 3.7% | -3.4% | 8.5%
COc1cc(CC(=O)OCC(=O)N2CCCCC2)cc(OC)c1OC | · | 3.2% | 2.6% | 1.8%
Cc1cc(C(=O)Nc2nnc(C3CC3)s2)c(C)s1 | · | · | 0.5% | 1.3%
CC[C@]1(C(=O)OC)[C@H]2C(=O)N(C)C(=O)[C@H]2[C@H]2CN=C(SCc3ccccc3)N21 | · | · | -2.0% | -4.3%
Cc1ccccc1N=C1NC(=O)CS1 | -0.6 | -0.8% | -1.1% | -9.7%

# 2 entries from above, with the structure last.
GLA inh pH 4.5,miR-21 reporter,Rango complex inh,Rango dissoc inh,Structure
·,·,-5.7%,-2.9%,Cc1ccc(NC(=O)c2ccccc2OCc2c(C)noc2C)cc1S(=O)(=O)N(C)C
-4.0,0.3%,5.0%,-4.8%,C=CCn1c(SCC(=O)NC2CCS(=O)(=O)C2)nc2sc(CC)cc2c1=O (stereo unspecified)

# Next section
SMILES | GLA inh pH 4.5 | miR-21 reporter | Rango complex inh | Rango dissoc inh
COc1ccccc1CCC(=O)Nc1ccc(S(=O)(=O)Nc2cc(C)nc(C)n2)cc1 | · | · | 0.2% | -9.1%
CC(C)CNC(=O)c1c(N)n(/N=C/c2ccccn2)c2nc3ccccc3nc12 | -13.0 | -2.1% | -1.8% | -5.4%
COc1ccccc1CNC(=O)CNC(=O)N1CC(=O)Nc2ccccc21 | · | 0.1% | -1.0% | 5.7%
CC(C)c1nn2c(=O)cc(O)nc2s1 | -7.1 | -2.9% | 5.7% | -6.8%
CC(C)CN(C(=O)c1ccc(=O)n(C)n1)c1c(N)n(Cc2ccccc2)c(=O)[nH]c1=O | · | · | 0.0% | 11.4%
O=C(O)CC1c2ccccc2CCN1S(=O)(=O)c1ccccc1 (stereo unspecified) | · | · | -1.3% | 22.1%
COCCNC(=O)C(c1ccccc1C)N(C(=O)Cn1nnc2ccccc21)c1cccnc1 (stereo unspecified) | -4.1 | -3.5% | -3.8% | -21.9%
CC1C(=O)Nc2ccc(S(=O)(=O)N3CCN(c4cccc(Cl)c4)CC3)cc2NC1=O (stereo unspecified) | · | 18.5% | -2.0% | -6.8%
COc1cccc(NC(=O)N(Cc2cc3cc(C)cc(C)c3[nH]c2=O)CC2COCCO2)c1 (stereo unspecified) | -3.3 | 7.1% | -2.4% | 1.5%
CCC(=O)Nc1c(C)cc(C)cc1Cl | -0.2 | 0.3% | 3.7% | 14.0%
CCN(CC)c1ccc(-c2nn3c(-c4n[nH]c5c4CCC5)nnc3s2)cc1 | 5.1 | 18.8% | ? | ?
COC(=O)Oc1ccc(/C=C/C(=O)OC(C)C)cc1OC(=O)OC | -12.1 | -69.4% | -0.7% | 3.6%
O=C(CCl)NN1C(=O)NC2(CCCCC2)C1=O | 4.2 | -0.3% | 6.4% | 8.0%
c1ccc(-n2nnnc2N2CCOCC2)cc1 | -2.2 | -1.4% | -1.4% | 1.1%
O=C(CNc1ccc2ccccc2c1)N/N=C/c1ccccn1 | -4.0 | -0.6% | 2.2% | 9.0%
COc1ccc(NC(=O)NC2(C(=O)N3CCCC(C)C3)CCCCC2)cc1 (stereo unspecified) | · | -0.8% | -2.1% | -16.9%
CN(C(=O)COC(=O)C1COc2ccccc2O1)c1c(N)n(Cc2ccccc2)c(=O)[nH]c1=O (stereo unspecified) | · | · | -3.6% | -23.4%
COc1ccc(CNC(=O)N2CCN(c3cccc(C)c3C)CC2)cc1OC | · | 11.9% | -0.6% | 1.6%
COc1ccc(CCC(=O)OCC(=O)NCc2ccc3c(c2)OCO3)cc1 | · | · | -2.9% | -4.9%
Cc1nn(-c2ccccc2)c(C)c1NC(=O)COC(=O)c1ccccc1 | · | · | 3.7% | -0.9%
CC(Oc1ccc(F)cc1)C(=O)Nc1ccccc1C(=O)NC1CC1 (stereo unspecified) | · | · | -0.3% | -4.0%
CC(OC(=O)CN1C(=O)NC2(CCCC2)C1=O)C(=O)Nc1cccc(Cl)c1Cl (stereo unspecified) | · | · | -0.7% | 4.1%
O=C(COc1ccc(Cl)cc1Cl)N/N=C/C1CC=CCC1 (stereo unspecified) | · | -8.5% | 2.5% | 5.5%
O=S(=O)(NCC1CCN(c2ccc(S(=O)(=O)N3CCOCC3)cc2)CC1)c1ccccc1 | · | 27.3% | -0.8% | 1.7%

# Source: PubChem BioAssay (National Center for Advancing Translational Sciences (NCATS))
